# PMP22 txn: modulates PMP22 transcription in S16 Schwann cells; S16 Pmp22-F2sN Schwann cells (luciferase reporters placed in the Pmp22 gene), FLuc/NLuc coincidence luminescence, 24 h; Potency, µM (titrated, usually from 57.5 µM), for inactives: at the top dose activity change, negative = inhibition, hits mostly inhibitors; hit rate 2% among 43,000; AID 1508649; active = clear falling dose curves in both reporters; inconclusive = both reporters move, but less clearly or upward; inactive = either reporter flat; the % is the NLuc reporter signal; note: % is set by controls: 0 for no effect and ±100 for the full control effect; some results filed as inactive show a strong effect at the top dose
#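 S16 Schwann cells carrying FLuc/NLuc coincidence reporter in the Pmp22 3' UTR treated with compound 24 h at 37C; FLuc then NLuc luminescence read sequentially by dual-luciferase reagents.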
# HTT prom inh: inhibitors of huntingtin promoter activity | Potency, µM (series often up to 57.5 µM), for inactives: at the top dose activity change, negative = inhibition, usual class: inhibitors | hit rate 0.93% among 48,000 | HEK293 HTT promoter firefly luciferase reporter (activity 0% = vehicle and -100% = no light), 24 h; active = well fitted inhibition curve with a large enough effect; inconclusive = small, poorly fitted or top-dose-only effect; inactive = no such curve, though single readings can be large or run the other way; note: nearly all actives have a fitted effect of over 50% in size
#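 Quantitative HTS used concentration series of up to 57.5 uM final on HEK293 luciferase reporter cells, 24 h at 37 degrees C. Readout was Dual-Glo firefly luminescence.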
# * = called active by the depositor; ? = inconclusive; . = no result given; [ ] = dose if it differs, or a comment. Potency is the fitted concentration of half-maximal effect.
SMILES,PMP22 txn,HTT prom inh
COc1cc(C(=O)N2CCC(c3nc4ccccc4s3)CC2)cc(OC)c1OC,?,?
COc1ccc(C(=O)Nc2ccc3nc(SCC(=O)N4CCc5ccccc54)sc3c2)cc1,-26%,-17%
Cc1cc(C)cc(OCC(=O)Nc2ccc(-c3nc4ncccc4o3)cc2C)c1,?,0%
COc1cc(Nc2ncc3c(n2)CCN(Cc2cc(Br)cs2)C3)cc(OC)c1,-13%,-17%
COc1ccc(NC(=O)CCn2c(-c3ccc(F)cc3)cc(C(C)=O)c2C)c(OC)c1,-20%,?
Cc1ccc(OC(=O)CSc2nnc(-c3cccs3)o2)c(C)c1,12%,3%
COC(=O)c1sc2ccccc2c1S(=O)(=O)N1CCN(c2ccc(C(C)=O)cc2)CC1,-32%,-31%
Cc1nc2ccc(S(=O)(=O)NCC(=O)Nc3ccc(F)cc3F)cc2s1,0%,-11%
CCOC(=O)N1CCc2c(sc(NCc3cccs3)c2C(=O)Nc2cc(Cl)ccc2OC)C1,?,-5%
CC(C)OC(=O)c1cccc(NC(=O)Cn2nnc3sc4c(c3c2=O)CCCC4)c1,-20%,0%
Cc1ccc2nc(/C(C#N)=C/c3ccccc3F)[nH]c2c1,-24%,48%[activator]
COc1ccc2[nH]cc(S(=O)(=O)c3ccc(C)c(C)c3)c(=O)c2c1,-30%,-23%
Cc1ccc(C)c(N2CCN(C(=O)CCCCCn3c(=O)[nH]c4ccccc4c3=O)CC2)c1,-18%,-23%
CC(C)c1ccc(-c2noc(SCC(=O)N3CCN(c4ccccc4F)CC3)n2)cc1,?,-2%
Cc1ccccc1CN1C(=O)c2ccccc2Sc2ccc(C(=O)N3CCCC3)cc21,3%,-18%

# 3 compounds already listed, arranged by the number in HTT prom inh, rising.
SMILES,HTT prom inh
COC(=O)c1sc2ccccc2c1S(=O)(=O)N1CCN(c2ccc(C(C)=O)cc2)CC1,-31%
Cc1ccc(C)c(N2CCN(C(=O)CCCCCn3c(=O)[nH]c4ccccc4c3=O)CC2)c1,-23%
Cc1cc(C)cc(OCC(=O)Nc2ccc(-c3nc4ncccc4o3)cc2C)c1,0%

# The list goes on:
SMILES,PMP22 txn,HTT prom inh
CC(C)N=C(N)/N=C(\N)Nc1ccc(Cl)cc1,.,-13%
Cc1ccc(NC(=O)C2CCN(c3cc(C)nc4c(-c5ccc(Cl)cc5)c(C)nn34)CC2)c(C)c1,1%,-12%
Cc1ccc(N2CC(NC(=O)c3cccs3)CC2=O)cc1 (centres undefined),17%,-18%
COc1ccc(Cn2c(=O)c3oc4ccccc4c3n(Cc3cccc(F)c3)c2=O)cc1,9%,-16%
Cc1nc(-c2ccc(S(=O)(=O)Nc3ccc(OC(F)(F)F)cc3)cc2)co1,?,?
CCc1ccc(NC(=O)CN(Cc2ccccc2)S(=O)(=O)c2ccc3nc(C)sc3c2)cc1,-23%,?
Cc1ccc(C)c(N2C(=O)N(Cc3c(F)cccc3Cl)c3ccccc3S2(=O)=O)c1,?,-14%
CCN(Cc1ccccc1)C(=O)C1CCN(c2ncnc3c2nc2n3CCCCC2)CC1,?,-29%
Cc1nc2c(C(=O)NCCc3ccccc3)cnn2c(C)c1Cc1c(F)cccc1Cl,?,-13%
Cc1cc(C)cc(OCC(=O)NC(Cc2c[nH]c3ccccc23)C(=O)O)c1 (centres undefined),?,-24%
Cc1ccc(S(=O)(=O)CCC(=O)Nc2ccc(OC(F)(F)F)cc2)cc1,?,-12%
CCn1nc(C)c2c(-c3ccccc3)cc(=O)n(C(C)C(=O)NCCc3ccc(OC)c(OC)c3)c21 (centres undefined),-23%,-14%
COc1ccc(C)cc1NC(=O)C1CCCN(S(=O)(=O)c2ccc3c(c2)CCCN3C(C)=O)C1 (centres undefined),-4%,?
COCCCNC(=O)c1cn(CC(C)C)c(=O)c2c1c1ccccc1n2C,9%,-5%
CCc1ccccc1NS(=O)(=O)c1cc(Br)cc2c1N(C(=O)C1CC1)CC2,?,?
CCc1ccc2oc(-c3cccc(NC(=O)c4cc5ccccc5o4)c3)nc2c1,1%,40%[activator]
COc1ccc(-c2cn3c(n2)sc2cc(C(=O)Nc4cccc(SC)c4)ccc23)cc1,?,-21%
CCOC(=O)Cn1c(=O)n(CC2CCCO2)c2nc(-c3ccccc3Cl)nc(C(N)=O)c21 (centres undefined),-2%,-11%
COc1ccccc1C(=O)NC1(C(F)(F)F)C(=O)Nc2c1c(=O)[nH]c(=O)n2-c1ccccc1 (centres undefined),-84%,-7%
CCCS(=O)(=O)c1nc(S(=O)(=O)c2ccc(C)cc2)c(NCc2ccccc2)s1,-8%,?
O=c1c2sc3ccccc3c2n(Cc2cccc(C(F)(F)F)c2)c(=O)n1Cc1ccco1,-9%,-21%
COc1ccc(CN(C)c2ccc(-c3nc(-c4ccccc4)no3)cc2[N+](=O)[O-])cc1,-1%,38%[activator]
COc1ccc(C2c3c(-c4ccccc4)n[nH]c3C(=O)N2c2ccc(C(=O)O)cc2)c(OC)c1 (centres undefined),-20%,-9%
COc1ccccc1CNC(=O)C1CCCN(c2nn3cc(-c4ccc(F)cc4)nc3s2)C1 (centres undefined),?,?
COc1cccc(C(=O)Nc2nc3nc(-c4ccccc4)cc(=O)n3[nH]2)c1,-191%,-12%
COc1ccccc1C(=O)NCCSc1c(C)[nH]c2ccccc12,-15%,?
CCOc1ccc(NC(=O)c2ccc3c(SCC(=O)O)c4c(nc3c2)CCCC4)cc1,-76%,-40%
Cc1cc(C)c(NC(=O)COc2ccc3c(C)cc(=O)oc3c2)c(C)c1,-12%,-28%[11.5 µM]
O=C(Nc1ccccc1C(F)(F)F)C1(S(=O)(=O)c2ccc(Cl)cc2)CC1,11%,-7%
O=C(Nc1cc(-c2nc3ccccc3o2)ccc1Cl)c1cc([N+](=O)[O-])ccc1N1CCOCC1,-24%,12%
Cc1cc(O)cc(C)c1Cl,.,-3%
CN(C)CCNC(=O)c1ccc2c(=O)n3c(nc2c1)CCCCC3,-42%,-1%
Cc1cc(NC(=O)CN2C(=O)c3cccnc3Sc3ccccc32)ccc1Br,-2%,1%
CCCSc1ncc(Cl)c(C(=O)N2CCN(c3ccc(OC)cc3)CC2)n1,-21%,?
CCCCCOC(=O)Nc1nc(=O)n([C@@H]2O[C@H](C)[C@@H](O)C2O)cc1F (some centres undefined),.,-3%
COc1cc(NC(=O)c2nn(C)c3c2CS(=O)(=O)c2ccccc2-3)cc(OC)c1,-12%,-22%
Cc1ccc2scc(N3CCN(c4ccc(F)cc4)CC3)c(=O)c2c1,-8%,-12%
CC(C)N1CCc2c(sc(NC(=O)c3ccc(S(=O)(=O)N(C)C4CCCCC4)cc3)c2C(N)=O)C1,?,?
Cc1ccc(C)c(CN2C(=O)c3ccccc3Sc3ccc(C(=O)NCc4ccc5c(c4)OCO5)cc32)c1,43%,-21%
COc1ccccc1/C=C/c1nc(C#N)c(N2CCCCC2)o1,?,-14%
CC1CCC(NC(=O)c2ccc3c(c2)N(Cc2ccccc2F)C(=O)c2ccccc2S3)CC1 (centres undefined),?,28%
CCc1ccc(NC(=O)c2cc3c(COC(C)=O)cnc(C)c3oc2=O)cc1,-20%,1%
CC1CCCN(S(=O)(=O)c2cc(C(=O)NCCc3ccccc3)n(C)c2)C1 (centres undefined),-11%,-9%
CCc1ccccc1N(CC)C(=O)c1c(C)oc2ncn(C)c(=O)c12,-5%,0%
COCCNC(=O)c1ccc(-n2c(-c3ccccc3)cc3c2CCCCC3)cc1,-52%,15%

# Complete entries from above. Order of screens: PMP22 txn, HTT prom inh
# Entry for CC1CCCN(S(=O)(=O)c2cc(C(=O)NCCc3ccccc3)n(C)c2)C1 (centres undefined) : -11%, -9%
# Entry for Cc1ccc(C)c(CN2C(=O)c3ccccc3Sc3ccc(C(=O)NCc4ccc5c(c4)OCO5)cc32)c1 : 43%, -21%
# Entry for CCCSc1ncc(Cl)c(C(=O)N2CCN(c3ccc(OC)cc3)CC2)n1 : -21%, ?
# Entry for CC(C)N1CCc2c(sc(NC(=O)c3ccc(S(=O)(=O)N(C)C4CCCCC4)cc3)c2C(N)=O)C1 : ?, ?
# Entry for COCCNC(=O)c1ccc(-n2c(-c3ccccc3)cc3c2CCCCC3)cc1 : -52%, 15%

# Following part
SMILES,PMP22 txn,HTT prom inh
Cc1cc2oc(=O)c(CC(=O)NCCc3ccccc3F)c(C)c2c2occ(C(C)(C)C)c12,-44%,4%
COC(=O)c1ccc(NC(C)=O)cc1OC,.,-2%
CCOc1ccc(-n2c(CCC(=O)O)ccc2-c2ccc(Br)cc2)cc1,?,0%
CCN(CC)S(=O)(=O)c1ccc2c(c1)N(CC(=O)N1CCN(c3cccc(C)c3)C(C)C1)C(=O)CO2 (centres undefined),-16%,-24%
CC1=C(C(=O)Nc2ccccc2)C(c2cccn2C)n2ncnc2N1 (centres undefined),-11%,-6%
C=Cc1ccc(CSc2nc(-c3ccc(OC)cc3)nc3c2Cc2c(CO)cnc(C)c2O3)cc1,?,-14%
COc1ccc(NC(=O)CCc2c(C)nc3nc(CNC(=O)OC(C)(C)C)nn3c2C)cc1OC,9%,-5%
CCC(=O)C1=C(c2cccc([N+](=O)[O-])c2)N(C(=O)CC)n2c(nnc2-c2ccccc2)S1,3µM*,-9%
Cc1ccccc1OCc1nc2c3cnn(-c4ccccc4F)c3ncn2n1,?,-2%
CCCc1c(C(=O)OCC)nnc2c(-c3ccccc3)c(C)nn12,-1%,-8%
Cc1ccc(C)c(N2CCN(S(=O)(=O)c3ccc4oc(=O)c5ncn(C)c5c4c3)CC2)c1,-9%,-12%
COc1ccc(Cn2c(SCC(=O)NCc3ccc(Cl)cc3)nc3ccsc3c2=O)cc1,-33%,0%
COc1ccc(C(=O)COC(=O)C(Cc2c[nH]c3ccccc23)NC(=O)c2ccc(C(C)(C)C)cc2)cc1 (centres undefined),7%,-25%
CC(C)c1nn2c(=O)cc(COC(=O)c3ccc(NC(=O)C4CCCCC4)cc3)nc2s1,2%,-13%
CS(=O)(=O)c1ncc(N(Cc2ccco2)Cc2ccco2)c(C(=O)Nc2ccccc2Br)n1,-4%,-16%
COc1ccc(NC(=O)Cn2c(=O)c3cc(Cl)ccc3n3nncc23)cc1,7%,-19%
Cc1ccc(NC(=O)CN2C(=O)CSc3ccc(S(=O)(=O)N(C)C)cc32)cc1C,-15%,-23%
CC1=C(c2ccc(C)c(C)c2)S(=O)(=O)N=C1N1CCC(C(=O)N2CCC(C(N)=O)CC2)CC1,4%,-8%
CC(C)CCNC(=O)CN1C(=O)CSc2ccc(S(=O)(=O)N3CCC(C)CC3)cc21,-7%,-8%
CCc1ccc(NC(=O)c2sc3ncnc(N(C)C4CCCCC4)c3c2C)cc1,-32%,-30%
COCCOC(=O)c1c(-c2ccccc2)c(-c2ccccc2)nn(C)c1=O,7%,-5%
CCn1cc(C(=O)NCc2ccccc2OC)c(=O)c2cc(S(=O)(=O)N3CCCCC3)ccc21,?,-3%
CCCOc1ccc(C(=O)Nc2ccc(NC(=O)c3cccc(Cl)c3)cc2)cc1,2%,-12%
O=C(NCc1nc2ccccc2n1Cc1ccccc1Cl)c1ccccc1,-18%,?
Cc1ccc(OCc2nc(-c3ccc(C(=O)N4CCN(c5ccccc5)CC4)cc3)oc2C)cc1,9%,57%[activator][11.5 µM]
CC1=C(C(=O)Nc2cccnc2)C(c2ccc(F)cc2)n2nc(SCc3ccccc3F)nc2N1 (centres undefined),-14%,-4%
NC(=O)CSc1nc2ccc(NC(=O)COc3ccccc3Cl)cc2s1,-41%,-12%
COc1cc(OC)cc(C(=O)Nc2ccc3nc4c(c(Nc5ccc(OC)c(OC)c5)c3c2)CCCC4)c1,?,?
CC(C)c1ccc2c(c1)NC(c1ccc(F)cc1)=NC(c1cccs1)=N2,?,-28%
CC(=O)N1CCCC1c1nc2ccccc2n1Cc1ccccc1C (centres undefined),30%,-12%
COc1ccc(-c2nn3c(-c4ccc(C)cc4)nnc3c3ccccc23)cc1,0%,-1%
Cc1ccc(N2CCN(C(=O)c3noc4c3COc3ccc(C)cc3-4)CC2)c(C)c1,-1%,-10%
Cc1cccc(-c2nc3c(c(SCc4ccccc4Cl)n2)Cc2c(CO)cnc(C)c2O3)c1,?,-13%
COc1cc2nc(SCc3ccc(Cl)cc3)n3nc(CCn4nc(C)cc4C)nc3c2cc1OC,-18%,-5%
CCOC(=O)c1cc(-c2ccc(F)cc2)n(CCC(=O)NCCc2ccc(C)cc2)c1C,?,?
COCCNC(=O)CCc1c(C)nc2c(-c3ccc(F)cc3)c(C)nn2c1C,-13%,?
Cc1ccc(OCCSc2nc3ccc(NC(=O)COc4ccc(F)cc4)cc3s2)cc1,?,0%
O=C(CSc1n[nH]c(-c2ccccc2Cl)n1)NCCc1ccccc1,-7%,-8%
CC[C@@]1(O)C[C@H](O[C@H]2C[C@H](N(C)C)[C@H](O[C@H]3C[C@H](O)[C@H](O[C@H]4CCC(=O)[C@H](C)O4)[C@H](C)O3)[C@H](C)O2)c2c(cc3c(c2O)C(=O)c2c(O)cccc2C3=O)[C@@H]1C(=O)OC,.,-2%
COc1ccc2c(c1)c1c(c(=O)n(-c3ccccc3C)c(=O)n1CC(N)=O)n2C,-38%,-6%
Fc1ccc(CNc2nc(-c3ccc(Cl)cc3)cc(C(F)(F)F)n2)cc1,-21%,-29%
COc1ccc(/C=C/C(=O)Nc2ccc(Cl)c(Cl)c2)cc1,?,-19%
COc1cc(C(=O)NCCS(=O)(=O)N2CCN(c3ccccc3)CC2)cc(OC)c1OC,-2%,-17%

# Source: PubChem
